Vif A3G – HIV-1 Vif–A3G interaction blockers – biochemical, TR-FRET, GST-Vif 1-94, biotin-A3G peptide, dose response retest, primary screen (AID 1117319); 0.57% of 260,000 active; TR-FRET GST-Vif / biotin-A3G peptide binding; higher % means a stronger effect; test concentration not given here; strong numbers were not always called active; inhibition, %; hits with a dose series show IC50 in µM;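 active means above the screen mean plus three standard deviations and confirmed in dose response; inconclusive means results disagree or hit not tested in dose response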;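 further: Vif residues 1-94 fused to GST binding biotinylated APOBEC3G peptide 110-148; 0% = full assay without inhibitor and 100% = GST in place of GST-Vif; retest series ran down from 100 µM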
HNF4A DNA FP – change in binding of human HNF4 alpha to DNA; activity change, % at 10 µM; P41235; HNF4a-FITC DNA binding, fluorescence polarization, 1 h; 0.3% of 360,000 active; in the data active means activity change above about 30%, passing the limit was not always enough;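 further: controls were the assay level and a saturating level of protein; the project sought stronger binding though the title names inhibitors; some compounds called inactive have numbers as strong as hits; positive values seem to mean higher polarization but the record does not say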
B2AR ag – activates human beta-2 adrenergic receptor causing internalization | P07550 | Am2.2-beta2AR cells, FAP receptor internalization, flow cytometry; reference of the scale not given here | response, % (test concentration not listed) | 0.43% of 340,000 active | AID 504454;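 active means response above a set limit, near 3 SD of response in nonfluorescent compounds, cut at about 42% in these data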;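 further: stock transfer was 100 nL into about 11 µL; a reference agonist was the positive control; negative values mostly stem from fluorescent compounds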
Target sequence (P07550 whole entry, looked up): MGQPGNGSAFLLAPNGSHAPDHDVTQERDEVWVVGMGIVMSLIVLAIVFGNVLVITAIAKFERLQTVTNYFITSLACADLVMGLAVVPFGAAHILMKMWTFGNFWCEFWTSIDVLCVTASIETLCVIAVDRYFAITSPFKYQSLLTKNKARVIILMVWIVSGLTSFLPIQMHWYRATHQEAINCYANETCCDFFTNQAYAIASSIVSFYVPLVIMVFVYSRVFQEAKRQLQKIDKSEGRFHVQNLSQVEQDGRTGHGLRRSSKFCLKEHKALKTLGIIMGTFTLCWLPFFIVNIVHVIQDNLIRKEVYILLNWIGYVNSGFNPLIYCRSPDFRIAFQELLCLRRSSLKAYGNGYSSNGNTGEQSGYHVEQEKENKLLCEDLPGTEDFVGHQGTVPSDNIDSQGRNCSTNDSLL
A1 inh – inhibitors of the anti-apoptotic protein A1, read as caspase activation; 0.066% of 330,000 active; MEF A1-2A-BIM cells, Caspase-Glo 3/7 luminescence, 3 h; percent of clofoctol response, vehicle zero; AID 2462; caspase activation, % (test concentration not listed);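 active means over half of replicate activation scores above 10%, or exactly half above 10 with the replicate mean above 10; inconclusive means replicate mean below 10 yet half the replicates above 10; inactive means over half of replicates below 10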;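 further: wells of about 30 µL received 50 nL stock; many hits fall short of the cut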
LANA-H2A inh – blocks KSHV LANA binding to histone H2A/H2B. Q9QR71. cell-free LANA-H2A/H2B peptide, fluorescence polarization. inhibition, % (concentration not given with the values). 0.6% of 320,000 active. AID 2629; in the data active means inhibition mostly above about 10%, no sharp cut-off; inactive means mostly below about 6.7%;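 further: stock transfer was 7.5 nL into about 10 µL; 0% = median of vehicle wells and 100% = median of positive control wells; one replicate is shown; the record names a cut of 25% in any replicate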
E coli growth – inhibitors of Escherichia coli growth; OD600, 23 h; active compounds read low; OD600 absorbance (test concentration not listed); 0.21% of 330,000 active;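 active means OD600 absorbance below the run mean of sample wells minus 3.6 SD, in any replicate, cut at about 0.56 in these data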;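 further: stock transfer was 300 nL into about 60 µL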
UCH37 DUB inh – blocks the human deubiquitinase UCH37; purified proteasome/UCH37, Ub-AMC cleavage fluorescence; inhibition, % (test concentration not listed); 0.33% of 330,000 active; AID 588478;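 active means mean of two replicates above 20%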;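 further: 0% = compound-free wells with enzyme and 100% = wells lacking proteasome; stock transfer was 100 nL into about 20 µL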
Target sequence (Q9Y5K5 whole entry, looked up): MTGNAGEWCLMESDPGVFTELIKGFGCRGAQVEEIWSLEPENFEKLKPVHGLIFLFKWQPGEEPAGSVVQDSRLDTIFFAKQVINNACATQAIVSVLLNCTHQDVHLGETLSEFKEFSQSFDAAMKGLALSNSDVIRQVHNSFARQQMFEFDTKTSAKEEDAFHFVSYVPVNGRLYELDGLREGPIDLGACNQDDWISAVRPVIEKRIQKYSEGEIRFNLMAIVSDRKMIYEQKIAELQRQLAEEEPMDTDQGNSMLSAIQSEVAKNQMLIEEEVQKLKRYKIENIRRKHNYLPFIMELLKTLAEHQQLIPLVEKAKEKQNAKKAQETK
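Signal – fluorescence, ex 355 nm, em 460 nm · System – Proteasome-bound UCH37 · Input – 0.15 nM proteasome as dispensed · Timing – 30 min preincubation with enzyme, 25 min cleavage at room temperature · Read-out basis – percent inhibition of cleavage signal versus uninhibited and no-proteasome wells · Medium – Tris-HCl pH 7.4 with ATP-MgCl2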
An asterisk follows results filed as active; ? = inconclusive; / = no result given.

SMILES	Vif A3G	HNF4A DNA FP	B2AR ag	A1 inh	LANA-H2A inh	E coli growth	UCH37 DUB inh
Cc1ccc(NC2CCCN(C(=O)c3ccc4nccnc4c3)C2)cc1C (stereo unspecified)	/	1.1	-2	0.5	-3.0	0.73	3.3
COCc1ccc(C(=O)N2CCCC(Nc3ccc4c(c3)OCCO4)C2)o1 (stereo unspecified)	/	-2.2	-2	-0.1	-3.2	0.71	1.2
CC(CC(=O)O)CC(=O)Nc1ccc(Br)cc1 (stereo unspecified)	-5%	-2.0	1	-0.5	-1.9	0.67	5.3
CCCCCOc1ccc(C(=O)OCC(=O)Nc2cc(C)c(C)cc2[N+](=O)[O-])cc1	3%	-5.6	4	-0.1	3.5	0.75	3.3
C#CCOc1ccccc1C(N)=O	-9%	2.2	-2	0.9	5.5	0.67	1.4
CN(c1ccccc1C(=O)NC1CCCCC1)S(=O)(=O)c1ccccc1	-7%	1.5	-6	2.4	3.4	0.63	-3.7
Fc1ccc(NC(=S)Nc2ccccc2OC(F)F)cc1Cl	/	1.0	10	-0.2	-4.9	0.6	3.8
CSCCC(NC(=O)c1cc(C)oc1C)C(=O)O (stereo unspecified)	13%	2.4	-1	0.6	-7.7	0.72	1.7
COc1ccc(N2C(=O)CCC(C(=O)NCCN3CCOCC3)C2c2ccc(OC)c(OC)c2)cc1 (stereo unspecified)	6%	-3.0	-6	/	/	0.69	/
O=C(O)c1ccc(-c2ccc(/C=c3/sc4nc5ccccc5n4c3=O)o2)cc1Cl	/	57*	-211	-0.1	0.1	/	/
Cc1ccc(O)c(C(=O)c2cnn(C(=O)COc3ccccc3C#N)c2)c1	/	/	/	-0.5	1.9	0.68	0.4
CCC(C)N1C(=O)CCC1C(=O)NCc1ccc2c(c1)OCO2 (stereo unspecified)	-2%	1.1	0	0.4	3.1	0.71	9.8
COc1cccc(CNc2ncc(Br)cc2Br)c1O	-4%	-0.8	-13	0.1	-1.6	0.71	-4.8
CCCC(=O)Nc1cccc(NC(=O)c2ccc([N+](=O)[O-])cc2Cl)c1	11%	-0.9	0	0.1	2.5	0.65	0.8
CCn1cc(C(=O)NC2CCCCC2)c(=O)c2ccc(C)nc21	-5%	-3.9	-15	-0.2	0.3	0.73	3.5
CCOC(=O)c1ccsc1NC(=O)c1ccco1	/	2.9	5	1.1	2.7	0.74	-38
COc1cc(C(=S)N2CCC(C(N)=O)CC2)ccc1O	-2%	-1.8	-15	0.4	11	0.74	1.5
COc1ccc(CC(=O)Nc2ccc(S(=O)(=O)NC(C)C)cc2)cc1	11%	-0.5	5	0.4	0.4	0.67	-0.2
CCCCOc1ccc(NC(=O)CSc2nnnn2C)cc1	-2%	0.4	-7	-0.5	1.9	0.71	3.4
COC(=O)C1=C(C)OC(N)=C(C#N)C1c1ccc(OC)c(OC)c1OC (stereo unspecified)	-1%	2.3	1	-0.5	-3.4	0.66	2.8
COc1ccccc1C=NNC(=O)NN=Cc1ccccc1OC	-1%	3.4	-1	/	/	0.67	3.1
Cc1ccc(CN2CCC(n3nccc3NC(=O)CCOc3ccccc3)CC2)cc1C	/	2.0	7	-0.8	-0.7	0.7	1.4
COc1ccc(OCC(=O)Nn2c(-c3cccc(OC)c3)nc3ccccc3c2=O)cc1	3%	-2.2	5	-0.2	5.1	0.7	1.6
Cc1ccccc1NC(=O)c1c(F)c(F)c(F)c(F)c1F	2%	8.9	-4	0.9	-1.5	0.68	-0.7
CCCc1ncc(C[n+]2ccccc2C)c(N)n1	/	-1.4	-3	0.1	4.1	0.67	4.2
Other entries
SMILES	Vif A3G	HNF4A DNA FP	B2AR ag	A1 inh	LANA-H2A inh	E coli growth	UCH37 DUB inh
CC(C)Sc1nnc([C@H](Cc2ccccc2)NC(=O)OC(C)(C)C)o1	-2%	1.7	1	0.0	3.7	0.72	4.2
COc1ccc(C2C(C#N)=C(N)OC3=C2C(=O)CCC3)c(OC)c1OC (stereo unspecified)	6%	-0.9	-4	0.3	2.6	0.63	-1.0
CCOc1cc(S(=O)(=O)n2nc(C)cc2C)ccc1F	7%	-5.5	-8	-0.4	1.3	0.68	1.4
CCC(=O)NC1CC2CCCC(C1)N2Cc1ccc(C)cc1 (stereo unspecified)	/	-2.3	-8	0.4	0.1	0.72	4.4
O=S(=O)(c1cccc(S(=O)(=O)N2CCC(N3CCCCC3)CC2)c1)N1CCOCC1	3%	/	/	/	/	0.66	4.0
COC(=O)c1ccc(COc2ccccc2/C=N/O)o1	-2%	1.1	3	-0.2	2.4	/	/
CNC(=S)N1C2CCC1CC(NC(=O)NC13CC4CC(CC(C4)C1)C3)C2 (stereo unspecified)	3%	0.1	-11	0.3	2.6	0.65	0.9
CCC(C(=O)NCc1cccnc1)c1ccccc1 (stereo unspecified)	9%	-0.4	-2	0.8	0.0	0.71	5.8
CC(=O)c1ccc(-c2cccc([C@H]3[C@@H]4C=CC[C@@H](C)[C@@H]4C(=O)N3Cc3ccccc3)c2)cc1	1%	-1.2	6	/	/	0.72	4.6
Cc1ccc(OCc2nn3c(-c4ccco4)nnc3s2)cc1	2%	-4.7	0	0.2	-7.5	0.74	1.0
CCCN(CCC)CCNC(=O)CCC(=O)Nc1ccc2nc(N3CCN(C)CC3)cc(C)c2c1	7%	3.1	1	0.4	-4.9	0.66	-133
COc1cc(C(=O)Nc2cccc(-n3cnnn3)c2)cc(OC)c1OC	/	-1.8	13	1.1	-1.8	0.67	3.1
Cc1cc2nnc(SCC(=O)NCc3cccs3)n2c2ccccc12	-15%	-4.2	-9	-0.1	1.5	0.65	0.2
O=C(Nc1nc2ccccc2n1CCN1CCOCC1)c1ccc(COc2ccccc2Br)o1	/	2.9	-1	-0.6	0.7	0.72	1.4
Oc1cccc2ccc(Nc3ccccn3)nc12	2%	-3.5	11	0.0	-11	0.62	5.1
O=C(O)c1csc(-c2cccs2)n1	/	1.5	-1	-0.4	-3.2	0.69	0.5
CC(C)CCNC(=O)c1onc(CSc2ccc(F)cc2)c1C(=O)NCCC(C)C	/	2.8	-1	-0.4	5.2	0.71	3.9
COCCCN1C(=O)C(=O)/C(=C(/O)c2ccc(C)cc2)C1/C=C/c1ccccc1 (stereo unspecified)	-5%	-4.3	1	0.7	-1.8	0.7	8.4
CCc1nnc(NC(=O)CSCc2cc(=O)n3nc(C(C)C)sc3n2)s1	-2%	7.0	2	0.4	-4.1	0.71	1.7
Cc1ccccc1CN(C)CC(=O)Nc1cccc(S(=O)(=O)N(C)c2ccccc2)c1	-5%	-6.1	-3	0.0	-0.7	0.69	2.4
COc1ccc(-c2csc(NCCc3nc4cc(Cl)c(N5CCCCC5)cc4n3CCOCCO)n2)cc1	/	10	7	1.8	1.4	0.69	1.1
COC(=O)CNC(=O)Cn1cnc2sc(C)c(S(=O)(=O)N3CCN(c4ccccc4OC)CC3)c2c1=O	/	3.7	1	0.4	6.3	0.64	2.3
CCOc1ccc(C(=O)N/N=C/c2ccccc2[N+](=O)[O-])cc1	2%	3.0	-9	-0.7	-2.6	/	/
CC(=O)N1CCN=C1SCc1cccc(F)c1	3%	-2.6	-6	-1.1	0.6	0.71	3.2
Cc1cc(C)c2c(=O)[nH]c(SCc3ccc([N+](=O)[O-])cc3)nc2n1	7%	-4.2	8	0.0	-5.6	0.66	5.4

Limited to UCH37 DUB inh, Vif A3G and A1 inh, for two of the compounds above:
canonical_smiles	UCH37 DUB inh	Vif A3G	A1 inh
COc1ccc(CC(=O)Nc2ccc(S(=O)(=O)NC(C)C)cc2)cc1	-0.2	11%	0.4
CC(=O)N1CCN=C1SCc1cccc(F)c1	3.2	3%	-1.1

Continuation:
SMILES	Vif A3G	HNF4A DNA FP	B2AR ag	A1 inh	LANA-H2A inh	E coli growth	UCH37 DUB inh
C=CCn1c(SCC(=O)NCCCO)nc2sc3c(c2c1=O)CCC3	/	-1.1	5	-0.6	-4.2	0.68	4.8
COc1ccccc1N(C)S(=O)(=O)c1ccc(Cl)c(C(=O)NC2=NCCS2)c1	18%	-4.6	0	1.2	-1.7	0.71	1.6
Cc1ccc(NC2=CC(=O)CC(c3ccc(Cl)cc3)C2)cc1 (stereo unspecified)	13%	-1.4	-1	-0.2	0.7	0.72	2.0
O=C1c2ccc(Oc3ccc([N+](=O)[O-])cc3)cc2C(=O)N1c1ccncc1	14%	0.1	-4	-1.1	6.3	0.71	4.4
O=C(CSc1nnc(CNc2ccc(F)cc2)n1CC1CCCO1)N1CCOCC1 (stereo unspecified)	/	-3.6	5	/	/	0.64	0.5
COc1cccc(-c2cc(C(=O)N3CCN(Cc4ccc5c(c4)OCO5)CC3)on2)c1	0%	4.5	2	-0.2	-2.1	0.72	6.4
CC(NS(=O)(=O)c1ccc2c(c1)OCCCO2)C(=O)O (stereo unspecified)	3%	1.0	-9	0.7	-3.7	0.7	1.4
CCn1c2ccccc2c2nnc(SCC(N)=O)nc21	1%	0.7	-6	-0.1	-1.7	0.65	6.7
COCc1nnc(NC(=O)c2cccc(NC(=O)C(C)C)c2)s1	8%	-1.1	5	-0.2	-4.6	0.72	-1.4
COc1cc(CN2CCC(CO)(Cc3cccc(C(F)(F)F)c3)CC2)ccc1F	/	0.4	4	2.2	1.6	0.64	4.1
CCCCn1c(=O)[nH]c(=O)c2c1nc(-c1ccccc1OC(F)F)n2C	3%	0.5	-7	0.4	2.1	0.65	-0.7
Cc1cccc(C)c1CC(=O)N1CCOCC1	/	-1.0	-5	-0.1	1.9	0.69	2.5
CCCCn1nnc(NC(=O)c2ccc([N+](=O)[O-])cc2Cl)n1	/	-1.9	-8	-0.3	-2.1	0.7	5.6
Cc1ccn2c(=O)c(C(=O)NCCCN3CCCCC3C)c(O)nc2c1 (stereo unspecified)	-5%	1.2	5	0.3	0.2	0.65	-45
Cc1ccc2nc(SCC(=O)Nc3ccc4sc(C)nc4c3)c(C#N)cc2c1	-24%	3.0	0	0.5	3.7	0.71	-3.4
O=C(CCc1ccccc1)NCCc1nc2ccccc2[nH]1	17%	1.2	0	-0.2	-2.9	0.66	-1.6
Cn1cc(CN2CCC[C@H]2CO)c(-c2cccc(Cl)c2)n1	/	4.5	-4	-1.3	0.2	0.67	0.3
CN1CCN(C(=O)c2cc([N+](=O)[O-])ccc2Cl)CC1	/	2.4	-5	-0.5	1.4	0.7	1.7
CCC(=O)Nc1ccc2c(c1)nc1n2CCSC1	6%	0.6	0	0.1	5.9	0.67	-1.2
O=C(CSCc1ccccc1)Nc1cccc(C(=O)Nc2ccccc2C(=O)O)c1	2%	-0.1	-9	0.1	1.9	0.62	-3.6
COc1cccc(-c2nc(CS(=O)CC(=O)NC3CCCC3)c(C)o2)c1 (stereo unspecified)	?	2.3	1	/	4.1	0.79	0.2

Molecules listed so far that have bromine (three):
SMILES	Vif A3G	HNF4A DNA FP	B2AR ag	A1 inh	LANA-H2A inh	E coli growth	UCH37 DUB inh
CC(CC(=O)O)CC(=O)Nc1ccc(Br)cc1 (stereo unspecified)	-5%	-2.0	1	-0.5	-1.9	0.67	5.3
COc1cccc(CNc2ncc(Br)cc2Br)c1O	-4%	-0.8	-13	0.1	-1.6	0.71	-4.8
O=C(Nc1nc2ccccc2n1CCN1CCOCC1)c1ccc(COc2ccccc2Br)o1	/	2.9	-1	-0.6	0.7	0.72	1.4

Ordered by the number under HNF4A DNA FP (low to high): 6 of the compounds above
| SMILES | HNF4A DNA FP |
| --- | --- |
| Cc1ccc(NC2=CC(=O)CC(c3ccc(Cl)cc3)C2)cc1 (stereo unspecified) | -1.4 |
| O=C(CSCc1ccccc1)Nc1cccc(C(=O)Nc2ccccc2C(=O)O)c1 | -0.1 |
| O=C1c2ccc(Oc3ccc([N+](=O)[O-])cc3)cc2C(=O)N1c1ccncc1 | 0.1 |
| CCCCn1c(=O)[nH]c(=O)c2c1nc(-c1ccccc1OC(F)F)n2C | 0.5 |
| CCn1c2ccccc2c2nnc(SCC(N)=O)nc21 | 0.7 |
| CN1CCN(C(=O)c2cc([N+](=O)[O-])ccc2Cl)CC1 | 2.4 |
